S aureus helic = blocks Staphylococcus aureus DNA helicase | AID 485395 | hit rate 0.05% among 120,000 | inhibition, %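 (tested at about 80 µM)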 | purified S. aureus helicase, fluorescence unwinding assay; about half of the hits fall short of the stated cut;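 active = both duplicates at 50% or more, or one of them with a favoured structure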;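 also: 0% = mean of negative control wells and 100% = mean of positive control wells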
MgrA DNA FP = S. aureus MgrA-DNA binding modulation | fluorescence polarization | inhibition, %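 (about 10 µg/mL by stock and volumes)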 | hit rate 0.13% among 84,000 | AID 602314;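 active = above 50% in either of two replicates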;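 also: 0% = protein plus DNA without compound and 100% = DNA alone without protein; higher means less MgrA bound to DNA so lower polarization; one replicate is shown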
Starred values were filed as active, the others as inactive; · = not tested or not shown. Some of the compounds tested, so the mix of outcomes need not match the whole.

The opening seven records, to show the layout:
SMILES	S aureus helic	MgrA DNA FP
O=c1c(-c2ccc(I)cc2)[n+]([O-])c2ccccc2n1O	1.0	10.1
O=C(Cn1ncc2c(=O)oc3ccccc3c21)Nc1ccc2c(c1)OCCO2	9.0	·
CC1CN(C(c2ccccc2)c2sc3ncnn3c2O)CC(C)O1 (stereo not drawn)	10.0	·
CCC1(c2ccccc2)NC(=O)N(C)C1=O (stereo not drawn)	·	-1.2
CCOc1ccccc1CNC1CC(C)(C)NC(C)(C)C1	8.0	1.2
OC(CNc1nc(-c2cccnc2)nc2ccccc12)c1ccccc1 (stereo not drawn)	1.0	·
O=C(NCC(c1ccco1)N1CCCCC1)c1ccc2c(=O)n3c(nc2c1)CCCCC3 (stereo not drawn)	-8.0	·

The whole of this part, from the first entry:
SMILES	S aureus helic	MgrA DNA FP
O=c1c(-c2ccc(I)cc2)[n+]([O-])c2ccccc2n1O	1.0	10.1
O=C(Cn1ncc2c(=O)oc3ccccc3c21)Nc1ccc2c(c1)OCCO2	9.0	·
CC1CN(C(c2ccccc2)c2sc3ncnn3c2O)CC(C)O1 (stereo not drawn)	10.0	·
CCC1(c2ccccc2)NC(=O)N(C)C1=O (stereo not drawn)	·	-1.2
CCOc1ccccc1CNC1CC(C)(C)NC(C)(C)C1	8.0	1.2
OC(CNc1nc(-c2cccnc2)nc2ccccc12)c1ccccc1 (stereo not drawn)	1.0	·
O=C(NCC(c1ccco1)N1CCCCC1)c1ccc2c(=O)n3c(nc2c1)CCCCC3 (stereo not drawn)	-8.0	·
CC(C)C(NS(=O)(=O)c1cccc2nsnc12)C(=O)NCc1ccco1 (stereo not drawn)	-7.0	1.2
COc1ccc(-c2cc(C(N)=O)c3ccccc3n2)cc1	2.0	0.5
NC(=O)C12CC3CC(CC(C3)C1)C2	28.0	·
CC1=C(C(=O)OC2CCCC(C)C2)C(c2ccccc2OCc2ccccc2)NC(=O)N1 (stereo not drawn)	·	-1.4
CN(CC(=O)N1CCN(c2ccccn2)CC1)S(=O)(=O)c1ccccc1	6.0	1.5
COc1cc(NS(=O)(=O)c2c(C)oc3c(F)c(F)c(F)c(F)c23)cc(OC)c1OC	·	2.3
Cc1ccsc1-c1nc(CSCC(=O)NCc2cccnc2)c(C)o1	10.0	·
Cc1ccc(Cc2ccc(Cl)nn2)cc1	·	1.3
COc1ccc(CCNC(=O)Cc2noc3ccccc23)c(OC)c1	-2.0	·
C=CCNc1ncnc2c1c(-c1ccccc1)cn2-c1cccc(C)c1	2.0	-0.9
CSc1cc(C(F)(F)F)c(C(=O)Nc2cccc(C)c2C)cn1	·	-2.9
CC(OC(=O)c1cccn1C)C(=O)Nc1ccc(S(=O)(=O)N2CCCC2)cc1 (stereo not drawn)	-10.0	·
CC(C)c1nnc(NC(=O)CC(NC(=O)c2ccccc2)c2ccccc2)s1 (stereo not drawn)	10.0	1.4
Cc1c(C(=O)OCc2cc(=O)n3ccsc3n2)sc2nc3n(c(=O)c12)CCC3	-12.0	·
CCOC(=O)c1c(/N=C/C2=C(O)CC(c3cccs3)CC2=O)sc(C)c1C (stereo not drawn)	·	3.6
N#CCSc1nnc(-n2cccc2)s1	·	-0.2
NC(=O)c1c(NC(=O)CCN2C(=O)c3cccc([N+](=O)[O-])c3C2=O)sc2c1CCCC2	·	-0.2
CCCCn1nc(C(=O)Nc2ccccc2C(C)C)ccc1=O	-7.0	·
CC(C)(C)C(=O)/C(C#N)=C/c1cccs1	-6.0	·
C[N+]1(Cc2nc3ccccc3[nH]2)CCOCC1	4.0	-0.4
COc1ccc(-c2nnc(SC3CCOC3=O)o2)cc1 (stereo not drawn)	10.0	0.1
Clc1nc(Cl)nc(NCc2ccccc2)n1	1.0	-5.1
O=S(=O)(c1ccc(C2CCCCC2)cc1)N1CCn2c(nc3ccccc32)C1	13.0	3.0
O=C(CN(C(=O)c1csnn1)c1cccc(F)c1)NC1CCCC1	4.0	16.6
Cc1ccc(NC2SC(=O)NC2=O)c(C)c1 (stereo not drawn)	-17.0	·
Cc1cccc(-c2nc(CCNC(=O)c3cccs3)cs2)c1	6.0	·
COC(=O)c1ccc(Sc2ccc(C)cc2)c(N)c1	6.0	·
COc1ccccc1CCNC(=O)c1ccc(COc2ccccc2Cl)o1	-12.0	0.2
COc1ccccc1C1CCN(S(=O)(=O)c2ccccc2Br)CC1	·	0.7
Cn1c(=O)c2sccc2n2c(CCC(=O)Nc3ccccc3)nnc12	-24.0	·
C=CCN(CC=C)C(=O)COc1ncnc2sccc12	0.0	·
COc1cc(-c2nnc(NC(=O)CCS(=O)(=O)c3ccc(C)cc3)o2)cc(OC)c1OC	12.0	·
O=C(c1ccncc1)N(c1ccccc1)c1ccccc1	-10.0	-0.6

Two entries from above in a different format:
Cn1c(=O)c2sccc2n2c(CCC(=O)Nc3ccccc3)nnc12
  S aureus helic: -24.0	MgrA DNA FP: ·

C=CCN(CC=C)C(=O)COc1ncnc2sccc12
  S aureus helic: 0.0	MgrA DNA FP: ·

Carrying on:
SMILES	S aureus helic	MgrA DNA FP
CCOC(=O)c1ccc2[nH]c3c(c2c1)CCCC3NC=O (stereo not drawn)	-4.0	2.5
CCOC(=O)C1CCN(CC(=O)Nc2cccc3cccnc23)CC1	-2.0	·
C=CCn1c(SCCC(=O)O)nnc1-c1cccnc1	4.0	·
CCc1c(N)c2ccccc2[nH]c1=O	·	-1.4
O=C(OCC(=O)N1CCCCC1)c1ccc(Br)o1	-2.0	-1.4
CC(OC(=O)C1CCN(c2ccc(C(F)(F)F)cn2)CC1)C(=O)Nc1cccc(C#N)c1 (stereo not drawn)	10.0	·
CCCCn1cnc2cc(NCc3ccc(Br)cc3)ccc21	6.0	-0.1
COC(CNC(=O)c1ccc2nc(-c3ccccc3)c(-c3ccccc3)nc2c1)OC	-12.0	1.0
CC1CN(C(=O)CCCC(=O)N2CC(C)OC(C)C2)CC(C)O1 (stereo not drawn)	·	-1.9
OC1(c2cccc(F)c2)CCCCC1	·	2.2
COc1ccc(N/C=C(\C#N)c2nc(-c3cc4cc([N+](=O)[O-])ccc4oc3=O)cs2)c(OC)c1	·	-2.9
Cc1cc2c(cc1C)NC(C(F)(F)F)=CC(c1cccs1)=N2	11.0	1.8
FC(F)(F)Oc1ccccc1-c1nnc(-c2ccncc2)o1	·	-1.4
CCN(CC)C(=O)C1CCCN(Cc2ccccc2)C1 (stereo not drawn)	20.0	-4.2
CC(C)(C)c1ccc(C(=O)N2CCCCCC2)cc1	2.0	·
COc1ccc(-c2cc(=O)c3cc(F)ccc3o2)cc1	·	-2.0
Cc1ccc(CCNC(=O)c2cc3c(=O)oc4ccc(C)cc4c3s2)cc1	13.0	-0.2
COc1cc(Cc2nnc(C(=O)NC(C)C)o2)cc(OC)c1OC	0.0	-0.5
O=C(Cn1[nH]c(=O)c2ccccc2c1=O)NCc1ccncc1	-8.0	·
C=CCSc1nc(N)c(C(=O)OCC)cc1C#N	11.0	·
Fc1ccc(CSc2ncnc3c2cnn3-c2ccccc2)cc1	·	-2.8
CCOC(=O)c1c(/N=C/c2cc(Br)c(Br)cc2O)sc2c1CCCC2	·	1.4
Cc1sc2nc(SCc3ccccc3)n(C)c(=O)c2c1C	8.0	·
COc1cccc(C(NC(=O)c2ccccc2)c2ccc3cccnc3c2O)c1 (stereo not drawn)	14.0	·
O=C(OCc1cc(=O)n2ccsc2n1)c1ccc(NS(=O)(=O)c2ccc3c(c2)OCCO3)cc1	2.0	·
Cc1occc1C(=O)N/N=C/c1ccc(C(C)(C)C)cc1	37.0	·
CCCCN(C)C(=O)Nc1cn(C)c(=O)c2ccccc12	-5.0	2.0
COc1ccc(NC(=O)CC2Sc3ncnn3C2=O)cc1 (stereo not drawn)	23.0	·
Cc1n[nH]c(C)c1CCc1nc2c3ccccc3nc(=S)n2[nH]1	2.0	·
CC(C)(C)NC(=O)c1cc(S(=O)(=O)N2CCCCC2)ccc1Cl	13.0	0.4
COc1ccc(/C=C/C(=O)NCc2ccccn2)cc1OC	19.0	2.6
CCOC(Cn1c(CC)nc2ccccc21)OCC	-31.0	·
O=S(=O)(NCCNC/C=C/c1ccc(Br)cc1)c1cccc2cnccc12	·	-0.8
Cc1ncc(CO)c(/C=N/N=C/c2c(O)ccc3ccccc23)c1O	5.0	9.4
O=C(COc1ccc2c(-c3ccccc3)cc(=O)oc2c1)c1ccccc1	3.0	2.4
CC1CC(C)CN(S(=O)(=O)c2cccc(C(=O)Oc3ccc4c(c3)OCO4)c2)C1 (stereo not drawn)	-13.0	·
O=C(c1ccc2c(c1)C(=O)N(Cc1ccco1)C2O)N1CCOCC1 (stereo not drawn)	-1.0	·
C=C(C)Cn1c(SCC(=O)O)nnc1-c1ccc(OC)cc1	-12.0	·
COc1ccccc1CNC(=O)c1ccc2c(=O)nc3c(-c4ccccc4)n[nH]n3c2c1	8.0	-2.8
COc1ccc(-c2nnc(Nc3nc4c(F)cccc4s3)o2)c(OC)c1	-4.0	·
CC(=O)Nc1cc2nc3[nH]c(=S)[nH]c(=O)c3nc2cc1C	-91.0	·
CC(C)(C)c1ccc(S(=O)(=O)N(CCCN2CCOCC2)Cc2cccs2)cc1	-4.0	·
CNN1C(=O)c2cccc3cccc(c23)C1=O	·	0.0
COc1ccc(N=Cc2ccncc2)cc1	-2.0	1.4
CNC(=S)N/N=C/c1ccc(N(C)C)cc1	-25.0	·
COc1ccc(CN(C)C(=O)CN(c2ccc3c(c2)OCO3)S(C)(=O)=O)cc1	-8.0	7.8
COc1ccccc1-c1cc(C(=O)NCc2ccc(F)cc2)no1	7.0	0.8
Cc1cccc(CCNS(=O)(=O)c2cnc[nH]2)c1	13.0	0.2
O=S(=O)(c1ccccc1)N1CCSC1c1ccccc1 (stereo not drawn)	9.0	·
CCN1C(=O)N/C(=C/c2ccc(-c3cc(C(=O)O)ccc3Cl)o2)C1=O	-106.0	·

New compounds follow
SMILES	S aureus helic	MgrA DNA FP
O=C(CSc1ncn(-c2ccccc2)n1)NCCc1ccccc1	6.0	0.6
CC1=NN(c2ccccc2)C(=O)/C1=C\c1ccccc1CC(=O)O	2.0	·
Cc1ccc2c(c1)CCCN2C(=O)c1cnn(-c2ccc(F)cc2)c1C	·	-0.4
O=C(/C=C/C(=O)c1ccc2ccccc2c1)c1ccccc1	3.0	5.0
CS(=O)(=O)N(CC(=O)O)Cc1ccc(Cl)c(Cl)c1	10.0	1.1
CC(C)N(C(=O)Cn1cc(S(=O)(=O)CC(=O)N(C)c2ccccc2)c2ccccc21)C(C)C	6.0	·
COc1ccc(N2Cc3cccc(C(=O)Nc4ccccc4)c3C2=O)cc1	11.0	·
CCc1ccc(-c2nc(SCC(N)=O)n[nH]2)cc1	-15.0	·
CC(C)(O)C(/C=C/c1ccccc1)=N/NC(N)=O	8.0	-0.4
Cc1ccc(-c2nnc(SC(C)C)n2-c2ccccc2)cc1	4.0	4.8
NC(=O)CSc1nnc2ccc3ccccc3n12	9.0	1.9
COc1ccc(C(=O)CC2=NC(C)(C)CO2)cc1	0.0	·
Clc1ccc(Cl)c(-c2nn3c(Cn4nnc5ccccc54)nnc3s2)c1	9.0	19.4
Clc1cccc(-c2noc3ncnc(NCCC4=CCCCC4)c23)c1	-20.0	·
O=C(COc1ccccc1)Nc1cccc(-c2ccc3nncn3n2)c1	10.0	·
CC1=NN(c2cccc(C(=O)O)c2)C(=O)/C1=C\c1ccc(-c2ccc3c(c2)C(=O)NC3=O)o1	·	4.0
COc1ccc(N2C(=O)Nc3ccccc3C2(O)C(=O)NCCN2CCN(c3ccccc3)CC2)c(OC)c1 (stereo not drawn)	8.0	·
Cc1cc(C[n+]2nc(-c3ccccc3)sc2N)c2ncccc2c1	-11.0	-3.6
COc1cccc2c1N(C(C)=O)C1CC(C)CCC1C2(C)C (stereo not drawn)	-10.0	-0.2
O=C(OCc1nnc(-c2ccccc2)o1)c1ccccc1	-6.0	·
O=C(CSc1nc2ccccc2[nH]1)Nc1ccc(Br)cc1F	-13.0	-0.4
CC(C)Cn1c(N)c(C(=S)NC(=O)c2ccco2)c(=O)n(C)c1=O	3.0	·
O=C(ON=C1CCCC1)c1ccc(Br)cc1	3.0	0.4
COc1ccccc1-n1c(CCN2C(=O)c3ccccc3C2=O)nc2ccccc2c1=O	·	-2.4
O[C@H]1[C@H]2c3cc4c(cc3CN3CCC(=C[C@@H]1O)[C@H]23)OCO4	·	4.1
FC(F)(F)c1c[nH]c(=S)c(C(F)(F)F)c1	·	9.0
CSc1ccccc1NC(=O)CN(C)C1CCN(C)CC1	-3.0	·
O=S(=O)(Nc1ccc(-c2ccno2)cc1)c1ccc(-n2cccn2)cc1	-13.0	1.3
CCOC(=O)N1CCCN(CC(=O)NC(C)(C)C)CC1	-4.0	·
CSC(=NCCc1ccc(Cl)cc1)NS(=O)(=O)c1ccccc1	·	1.9
Cc1[nH]ncc1CNC(=O)c1ccc(N2CCOc3ccccc32)s1	-11.0	·
O=C(CN1C(=O)CSC1=O)N1CCCCC1	4.0	-2.7
CCOc1ccc(-c2cc(N)c(C(=O)OC)s2)cc1	-21.0	·
c1ccc(-c2nnc3n2-c2ccccc2SC3)cc1	·	-0.2
OCc1noc(-c2ccc(Cl)c(Cl)c2)n1	·	1.6
COC(=O)c1scc(C)c1NC(=O)c1cccc(C(F)(F)F)c1	·	-0.9
O=C(c1ccc(Sc2ccccn2)c([N+](=O)[O-])c1)N1CC=CCC1	·	0.2
O=C(CCN1C(=O)NC2(CCCC2)C1=O)NCc1cccs1	3.0	·
O=C(CCCCn1c(=O)c2ccccc2n(CC(=O)N2CCN(c3ccccc3)CC2)c1=O)NCc1ccco1	-32.0	·
N#C/C(NCc1ccccc1)=C(\C#N)NCc1c(F)cccc1Cl	·	-0.3
COC(CNC(=O)c1cc2c(s1)-c1ccccc1OC2)OC	4.0	1.6
O=C1OC(c2ccc(Br)o2)=N/C1=C/c1ccco1	-8.0	2.3
C(=Nc1ccccc1)c1ccccc1	·	-1.9
CC1=C/C(=N\Nc2nncc3ccccc23)CC1	-5.0	·
Cc1cc(C)cc(NC(=O)CN2C=NS(=O)(=O)c3ccccc32)c1	1.0	-1.6

Assay outcomes as filed in PubChem BioAssay.
